CapD inh: Bacillus anthracis CapD inhibitors, primary screen, biochemical, fluorescence intensity | CapD gamma-glutamyltranspeptidase (Bacillus anthracis Ames Ancestor) | purified CapD enzyme, fluorescence intensity read-out; active compounds read low; some hits fall short of the stated cut | z-score (no concentration beside the values) | hit rate 0.23% among 140,000 | AID 492967, 2010;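 active means z-score under -4 in either of two replicates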;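 further: stock transfer was 100 nL into about 40 µL; score is relative to mean and spread of the plate; one replicate is shown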
AID504770: growth inhibition of E. coli YBA685, primary screen, V. cholerae RctB inhibitors. z-score (concentration not given with the values). hit rate 0.27% among 130,000. AID 504770, 2011. E. coli YBA685 rctB-dependent plasmid, OD600 growth, 3 h; active compounds read low;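 active means z-score under -2 on both plates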;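 further: wells of about 30 µL received 100 nL stock; score is relative to mean and SD of the test wells; the first replicate is given; strong numbers were not always called active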
Numbers without * were called inactive; x = not tested or not shown.

Results follow in this order: CapD inh	AID504770
- Cn1nc2c3c(cccc3c1=O)-c1ccccc1-2
  x	-0.5
- CCc1nnc2sc(-c3cccs3)nn12
  0.41	0.4
- CCCC(=O)N(c1ccccc1)C1CC(C)Nc2ccccc21 (stereo not given)
  -0.24	-0.2
- Cc1occc1-c1nnc(SCC(=O)NCC(=O)Nc2ccc(F)cc2)n1Cc1ccccc1
  x	-0.15
- C=CCNc1nc(C(=O)OCc2cccc(S(=O)(=O)N(C)C)c2)cs1
  x	0.7
- O=c1c2ccccc2nc(-c2ccccc2)n1C1CCS(=O)(=O)C1 (stereo not given)
  x	0.3
- COc1ccc(-c2cc(C(=O)Nc3c(C)n(C)n(-c4ccccc4)c3=O)c3ccccc3n2)cc1
  5.3	x
- O=C(CN1C(=O)CC(c2ccccc2)Sc2ccccc21)c1ccccc1 (stereo not given)
  0.6	0.4
- CCCN(C(=O)c1cccs1)c1nc(-c2ccccc2)cs1
  -0.43	0.25
- COc1ccccc1C(OC(=O)c1ccco1)C(=O)NCC1CCCO1 (stereo not given)
  x	-0.9
- Cc1ccc(C)c(NC(=O)c2nccnc2COC(=O)c2cccc(F)c2)c1
  -0.45	-0.9
- N#CC(C#N)=Cc1c(-c2ccccc2)nc2ccccn12
  x	-1.1
- COc1ccccc1C1C(C#N)=C2N=C(N)c3ccccc3N2C2=C1C(=O)CCC2 (stereo not given)
  -1.1	-0.25
- O=C(NCCCN1CCOCC1)c1ccc(CS(=O)(=O)c2c(Cl)cccc2Cl)o1
  -0.31	-0.9
- Cc1cc(NC(=O)CSCC(=O)O)n(C)n1
  0.83	-0.3
- OC1CCN(C(=S)Nc2ccccc2)CC1
  x	0.95
- CC(Sc1nncn1-c1ccccc1)C(N)=O (stereo not given)
  x	0.05
- Cc1cc(COC(=O)c2ccc(OCc3ccccc3)cc2)no1
  x	-0.1
- O=C1c2ccccc2C(=O)c2c(Nc3ccccc3Cl)ccc(Nc3ccccc3Cl)c21
  -0.01	x
- COC(=O)COc1cc(NO)ccc1N=O
  x	-0.25
- COc1cc(/C=C2/SC(=Nc3ccccc3)NC2=O)ccc1OCC(=O)O
  -0.9	x
- S=C(c1ccc(Cl)cc1)N1CCCCC1
  29	0.5
- Cc1ccc(NC(=O)COC(=O)C2CCC2)cc1Cl
  0	-0.55
- Nc1cccc(OCc2ccccc2F)c1
  x	-0.4
- O=S(=O)(c1ccc(Br)cc1OC(F)(F)F)N1CCC(C(O)(c2ccccc2)c2ccccc2)CC1
  0.45	x
- COc1ccc(NC(=O)CC(CC(=O)O)c2ccccc2)cc1 (stereo not given)
  0.29	0.35
- Cc1sc(-c2ccc(Cl)cc2)nc1CC(=O)N1CCC(C#N)(c2ccccc2)CC1
  36	x
- COc1ccc(NC(=O)Cn2c(-c3ccccc3F)nc3ccccc3c2=O)cc1OC
  0.01	x
- Cc1ccc2c(c1)N(Cc1ccccc1)C(=O)CC(c1ccccc1)=N2
  -0.43	x
- CC(=O)C12c3ccccc3C(c3ccccc31)C1C(=O)N(c3ccc(Br)cc3)C(=O)C12 (stereo not given)
  0.045	x

Two entries from above, reformatted.
molecule: O=S(=O)(c1ccc(Br)cc1OC(F)(F)F)N1CCC(C(O)(c2ccccc2)c2ccccc2)CC1
  CapD inh: 0.45 | AID504770: x
molecule: COc1ccc(NC(=O)CC(CC(=O)O)c2ccccc2)cc1 (stereo not given)
  CapD inh: 0.29 | AID504770: 0.35

Next structures follow:
Results follow in this order: CapD inh	AID504770
- COc1ccc(CN2CCCCC2COC(=O)N2CCN(c3ccc(C(F)(F)F)cc3)CC2)cc1Br (stereo not given)
  -0.3	x
- O=C(CN1CCN(Cc2ccccc2)CC1)N1CCCCCC1
  x	-0.35
- CS(=O)(=O)c1scc(-c2ccccc2)c1C#N
  0.71	x
- O=S(=O)(Cc1cccc(Cl)c1)c1nc(C(F)(F)F)cc(C(F)(F)F)n1
  0.07	-0.3
- CC1(C)C2CCC(COC(=O)NC(Cc3c[nH]c4ccccc34)C(=O)OCc3ccccc3)C1C2 (stereo not given)
  -1.1	x
- S=c1nccc(-c2ccc3c(c2)CCO3)[nH]1
  0.5	-0.95
- CCOC(=O)c1cnc2ccccc2c1Nc1cccc(C(C)=O)c1
  -0.21	x
- O=C(NC1CCCCC1)C1CCN(C(=O)c2ccccc2)CC1
  0.01	-0.25
- CCCCC(=O)NCc1ccc2[nH]c3c(c2c1)CCCC3
  -0.65	0.65
- O=C(Nc1nc2ccccc2n1Cc1ccc(Cl)cc1)c1ccco1
  3	x
- COc1ccc(C(=O)Nc2cc(C(=O)Nc3cccc(C(C)=O)c3)ccc2N2CC3CC(C2)c2cccc(=O)n2C3)cc1 (stereo not given)
  0.03	x
- N=C1/C(=C/c2ccc(OCCOc3ccccc3)c(Cl)c2)C(=O)N=C2SC=CN12
  -0.47	-0.05
- CNC(=O)Nc1nncnc1C(=O)O
  -0.27	-0.55
- CC1CCN(C(=O)Nc2cccc(Cl)c2Cl)CC1
  -0.45	-0.75
- COC(OC)c1ccnc(-c2ccc(OC(=O)c3cccs3)cc2)n1
  0.41	x
- COc1ccccc1N/C=C/c1onc(-c2c(F)cccc2Cl)c1C#N
  1.1	x
- CC(=O)N1N=C(c2cccs2)CC1c1cccs1 (stereo not given)
  0.52	-0.1
- Cc1noc(C)c1C(=O)O/N=C(\N)c1ccc(-c2csnn2)cc1
  0.16	-0.35
- NC(=O)COc1ccccc1O
  0.32	-0.3
- O=S(=O)(c1ccccc1)c1cnc2ccccc2c1N1CCC2(CC1)OCCO2
  -1.5	0.05
- CCOCCc1nnc(NS(=O)(=O)c2ccc(OC)cc2)s1
  x	1.7
- CN1CCN(c2ccc(NC(=O)c3ccc4c(c3)[nH]c(=O)n4C3CCCCC3)cc2)CC1
  x	-0.25
- COCCCN1CN=C(SCc2ccc(Cl)cc2)NC1
  -0.16	x
- CC(C)NC(=O)Cn1c(=O)c2cccn2c2cccnc21
  0.3	0.15
- CCN(CCCc1ccccc1)CCCc1ccccc1
  -0.08	0.5
- Cc1nnn(C23CC4CC(CC(C(=O)NCc5ccccc5)(C4)C2)C3)n1
  53	-0.15
- CC(C)(C)NC(=O)CSc1nnc(-c2ccccc2)c(-c2ccccc2)n1
  -0.43	x
- COC(=O)c1sccc1NC(=O)CSCc1ccc(Cl)cc1
  0.28	-0.4
- CCOC(=O)c1c(C)csc1NC(=O)c1ccc(C(C)(C)C)cc1
  1.7	x
- CSc1cccc(NC(=S)N2CCN3C(=O)c4ccccc4C32c2ccccc2)c1 (stereo not given)
  -0.32	x
- CCOC(=O)C1=C(C)N=c2s/c(=C/c3cc(Br)c(N4CCOCC4)o3)c(=O)n2C1c1ccc(OC)cc1 (stereo not given)
  -0.27	x
- CCOC(=O)C1CCN(S(=O)(=O)c2cc(Cl)cc(Cl)c2)CC1
  0.23	x
- N#Cc1ccccc1N=Cc1ccc(Br)cc1
  4.5	-0.35
- O=C(OCCCN=C1NS(=O)(=O)c2ccccc21)c1ccccc1Br
  -0.21	x
- Cc1ccccc1Nc1nc(N)nc(COc2ncnc3sccc23)n1
  x	-1
- Cc1ccc(S(=O)(=O)NC(=O)c2cc(C)n(-c3ccccc3)c2C)cc1
  x	-0.6
- Cc1cc(C)cc(OCc2ccc(C(=O)NC3CCOC3=O)o2)c1 (stereo not given)
  -0.24	0.25
- CCCn1nnnc1NCc1ccc(C(C)C)cc1
  -0.34	-0.3
- COc1ccc(C2=CC(c3cc(Br)ccc3F)n3ncnc3N2)cc1 (stereo not given)
  1.1	x
- CCCc1[nH]nc2c1C(c1cccc(OC)c1)C(C#N)=C(N)O2 (stereo not given)
  0.36	-0.35

Random excerpt: 4 records from the list
Results follow in this order: CapD inh	AID504770
- Cc1ccccc1Nc1nc(N)nc(COc2ncnc3sccc23)n1
  x	-1
- O=C(OCCCN=C1NS(=O)(=O)c2ccccc21)c1ccccc1Br
  -0.21	x
- Cc1ccc(S(=O)(=O)NC(=O)c2cc(C)n(-c3ccccc3)c2C)cc1
  x	-0.6
- CCOC(=O)C1CCN(S(=O)(=O)c2cc(Cl)cc(Cl)c2)CC1
  0.23	x

Going on with the list:
Results follow in this order: CapD inh	AID504770
- CSC(=S)Nc1ccc(F)cc1F
  -0.18	x
- CC(C)(C#Cc1cncnc1)OC(=O)Nc1ccc(Cl)cc1
  0.93	0.2
- CCOC(=O)C1=NN(c2cccc(Cl)c2)C2(Nc3ccccc3S2)S1 (stereo not given)
  6.9	x
- CC1(C)OC2OC(C(=O)Nc3ccc(F)cc3F)C3OC(C)(C)OC3C2O1 (stereo not given)
  -0.74	x
- O=C(COC(=O)c1ccccc1)Nc1ncc(C(F)(F)F)cc1Cl
  0.73	0.95
- Cc1ccnc(NC(=O)CCC2COc3ccccc3O2)c1 (stereo not given)
  0.9	0.95
- COc1ccccc1CNC(=O)c1nn(C)c2c1COc1ccccc1-2
  -0.63	-1.2
- CCOC(=O)Cn1c(C(F)(F)F)nc2ccccc21
  -0.035	2.2
- Cc1nc(SCC(=O)O)c(C#N)cc1C(=O)Nc1ccccc1
  x	-0.5
- Cc1ccc2[nH]c(=O)c3cc(C(=O)NCCCN4C(C)CCCC4C)sc3c2c1 (stereo not given)
  12	-0.1
- Cc1oc(-c2ccc(C(=O)NC3CC3)cc2)nc1COc1ccccc1
  0.15	0.25
- Cc1cc(C)c2c(N)c(C(=O)c3ccccc3)sc2n1
  0.43	0
- c1ccc2c(c1)Cn1c-2nc2ccccc21
  3.8	x
- COc1ccc(S(=O)(=O)N2c3cc(C)ccc3OCC2C(C)(C)C)cc1 (stereo not given)
  0.46	x
- Cc1ccc(C(O)(C(=O)NNc2ccccc2C)c2ccc(C)cc2)cc1
  -0.43	x
- CN1C(=O)N(C)C2C1NNC(=S)N2C (stereo not given)
  -0.13	x
- Cn1c(SCc2ccccc2)nc(-c2ccccc2)c1-c1ccccc1
  0.33	x
- Cc1ccc(NCC#N)cc1
  0.015	-1
- C=CCOC(=O)C1=C(C)OC(N)=C(C#N)C12C(=O)Nc1ccc([N+](=O)[O-])cc12 (stereo not given)
  -1.9	x
- Clc1ccc(CCNCc2ccncc2)cc1
  -0.36	-0.4
- O=C(CCc1ncc(C(F)(F)F)cc1Cl)N1CCN(c2ccccc2)CC1
  0.1	x
- Cc1ccccc1C(=O)c1c[nH]c(C(=O)N2CCN(Cc3ccccc3)CC2)c1
  -0.075	x
- CCc1ccc(CNc2ccc3c(c2)ncn3C)cc1
  -0.6	0.15
- CCOC(=O)c1[nH]c(C)c(/C(O)=C2\C(=O)C(=O)N(CCN3CCOCC3)C2c2ccco2)c1C (stereo not given)
  -1.4	-0.2
- Cc1cccc(N(CC(=O)O)CC(=O)O)c1
  -0.005	0.35
- O=c1n(-c2ccc(Br)cc2)cnn1-c1ncccc1[N+](=O)[O-]
  -0.36	x
- COc1ccc(C2=Nc3ccccc3N=C(c3cc(Cl)ccc3O)C2)cc1
  -0.7	x
- Cc1ccn2c(NC(=O)c3cc4cc(Br)ccc4oc3=O)c(-c3ccccc3)nc2c1
  0.88	x
- COc1ccc(C(=O)CSc2nc(C)c(C(N)=O)c(C)c2C#N)cc1
  0.01	0.25
- Cc1nc2ccc(S(=O)(=O)NC(C(=O)Nc3ccccc3C)c3ccccc3)cc2s1 (stereo not given)
  -0.7	0.3
- Cc1ccc(-c2cc(O)cc3sc(=O)oc23)cc1C
  -0.19	-0.6
- CC1(C)Cc2ccccc2C(c2sc3nc4c(cc3c2N)CCC4)=N1
  -1	0.3
- CCCCCCCCOc1ccc(-c2ncc(CCCCCCC)cn2)cc1
  0.16	x
- O=C1CCCN1S(=O)(=O)c1ccccc1
  -1.4	2
- O=C(COc1ccccc1O)NO
  0.28	-1.2
- COc1ccc(-c2onc3ccc4c5ccccc5oc4c23)cc1OC
  33	0.05
- COc1ccccc1NC(=O)C#Cc1ccccc1
  -0.7	-0.5
- Cc1nc2cccnc2n1-c1ccc(CC(=O)NCc2cccs2)cc1
  0.55	-0.25
- CNC(=O)COC(=O)C1(c2ccc(Cl)cc2)CCC1
  x	1.4
- COc1ccc(C2(CNC(=O)/C=C/c3ccccc3)CCOCC2)cc1OC
  -0.29	x
- CC(C)=CC(=O)Nc1ccccc1C(N)=O
  0.87	-0.8
- CC(=O)Nc1ccc(/C=N/N2C(C)CCCC2C)cc1 (stereo not given)
  x	-0.85
- Cc1cc(C)nc(SCc2nnc(SCC(=O)Nc3ccc(S(N)(=O)=O)cc3)n2C)n1
  0.63	-1.2
- CCOC(=O)c1c(C)n(C)c2ccc(OCC(N)=O)cc12
  0.51	1.2
- Cc1cccc(-c2nc(CSCC(=O)N3CCOCC3)c(C)o2)c1
  -0.26	-0.3
- C=CCn1c(COc2ccc(CC)cc2)nnc1SCC(=O)/C(C#N)=C(\C)N
  x	-0.25
- COc1ccc(-n2ncc3c(NCCc4ccc(OC)c(OC)c4)ncnc32)cc1
  11	x
- CCOC(=O)CC(=N)N
  x	1.9
- S=C(NCCc1c[nH]c2ccccc12)NCCN1CCOCC1
  x	-1.2
- COc1ccc(N=C(N)/C(C#N)=C/c2[nH]c3ccccc3c2O)cc1
  0.97	-0.15

Further results:
Results follow in this order: CapD inh	AID504770
- CC(C)(C)c1ccc(C(=O)N2CCCc3ccccc32)cc1
  -1.6	0.25
- Cc1ccc(O)c(C(=O)c2cnn(-c3nc(C)cc(=O)[nH]3)c2)c1
  x	1.8
- COc1cc(-c2nc(Cl)nc3ccc(Cl)cc23)cc(OC)c1OC
  0.19	x
- CC(Sc1nnc2n1CCCCC2)C(=O)NCc1ccc2c(c1)OCO2 (stereo not given)
  x	0.05
- O=c1oc2ccccc2o1
  x	0.15
- COc1cccc2c1OCC(C(=O)Nc1cc(Cl)ccc1Cl)=C2
  0.56	x
- COC(=O)C1C2C=CC3(CN(c4cccc(C)c4)C(=O)C13)O2 (stereo not given)
  -0.36	0

Assay outcomes: PubChem, ICCB-Longwood Screening Facility, Harvard Medical School
